# Screening results deposited in PubChem by National Center for Advancing Translational Sciences (NCATS).
# NPR1 antag – antagonists of human natriuretic peptide receptor Npr1. P16066. HEK293 hNpr1 GloSensor cGMP, ANP-stimulated luminescence. Potency, µM (doses to about 46.3 µM), without a hit: top-dose activity change, negative = inhibition, most hits filed as inhibitors. 76,000 compounds, 1.6% hits. AID 1347048; active = well fitted inhibition curve with a large enough effect; inconclusive = small, poorly fitted or top-dose-only effect; inactive = no such curve, though single readings can be large or run the other way;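 also: nearly all actives have a fitted effect of over 60% in size; nearly all hits also lower the signal before the agonist is added; a reference antagonist and vehicle were the controls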
# Target sequence (P16066 whole entry, looked up): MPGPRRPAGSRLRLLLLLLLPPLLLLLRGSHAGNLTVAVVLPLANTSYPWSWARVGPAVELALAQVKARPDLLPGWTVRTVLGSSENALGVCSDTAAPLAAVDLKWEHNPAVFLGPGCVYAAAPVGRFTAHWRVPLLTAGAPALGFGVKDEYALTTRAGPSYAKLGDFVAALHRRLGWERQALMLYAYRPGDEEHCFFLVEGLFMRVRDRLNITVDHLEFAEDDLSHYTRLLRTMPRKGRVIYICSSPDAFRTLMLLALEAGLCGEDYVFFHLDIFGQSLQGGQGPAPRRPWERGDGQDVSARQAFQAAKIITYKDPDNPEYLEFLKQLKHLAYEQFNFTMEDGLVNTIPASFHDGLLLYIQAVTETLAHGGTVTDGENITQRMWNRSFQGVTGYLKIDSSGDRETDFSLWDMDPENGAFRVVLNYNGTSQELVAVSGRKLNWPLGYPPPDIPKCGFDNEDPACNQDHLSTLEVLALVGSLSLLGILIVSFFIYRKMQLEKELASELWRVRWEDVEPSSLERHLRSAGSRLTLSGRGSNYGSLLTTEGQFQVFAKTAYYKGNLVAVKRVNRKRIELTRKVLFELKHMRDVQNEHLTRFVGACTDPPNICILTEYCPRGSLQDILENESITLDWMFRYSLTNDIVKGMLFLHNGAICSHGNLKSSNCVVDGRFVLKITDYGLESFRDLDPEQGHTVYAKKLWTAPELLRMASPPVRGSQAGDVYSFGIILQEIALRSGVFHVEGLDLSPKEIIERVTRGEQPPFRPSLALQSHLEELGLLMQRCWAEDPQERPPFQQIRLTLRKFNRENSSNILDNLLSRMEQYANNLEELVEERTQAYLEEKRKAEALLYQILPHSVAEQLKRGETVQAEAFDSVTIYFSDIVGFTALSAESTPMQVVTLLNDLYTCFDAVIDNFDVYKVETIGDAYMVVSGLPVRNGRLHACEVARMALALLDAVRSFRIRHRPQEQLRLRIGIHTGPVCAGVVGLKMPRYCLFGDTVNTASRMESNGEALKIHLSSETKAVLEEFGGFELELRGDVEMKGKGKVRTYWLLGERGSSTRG
#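 Compound pre-incubated 30 min at room temperature on GloSensor-loaded HEK293 cells stably carrying hNpr1 and the pGS-40F cGMP biosensor. Stimulation uses hNppA at 0.1 nM final; luminescence is taken at baseline and 20 min post-agonist.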
# An asterisk follows results filed as active; u = inconclusive; & = joins results of further samples; [ ] = another dose, or the depositor's remark. % is scaled to controls: 0 for no effect and ±100 for the full control effect; potency is read from the fitted curve at half-maximal effect. These rows are one share of the data; count on the stated rates, not on these rows.
# The first 4 compounds, to show the layout:
NPR1 antag | SMILES
4% | Cc1ccc(NC(=O)C2N(C(C)C)C(=O)C23CCCC3)cc1 (stereo not drawn)
-3% | CC(C)c1ccccc1OCC(=O)c1ccc2c(c1)N(CC(=O)N1CCCCC1)C(=O)CO2
0% | CCNc1ncc(C(=O)N2C[C@@H](NS(C)(=O)=O)[C@H](C(C)C)C2)cn1
3% | CN1CCN([C@H]2CCN(C(=O)c3c(Cl)cnn3C)C[C@H]2CCC(=O)O)CC1

# This part in full, from the first entry:
NPR1 antag | SMILES
4% | Cc1ccc(NC(=O)C2N(C(C)C)C(=O)C23CCCC3)cc1 (stereo not drawn)
-3% | CC(C)c1ccccc1OCC(=O)c1ccc2c(c1)N(CC(=O)N1CCCCC1)C(=O)CO2
0% | CCNc1ncc(C(=O)N2C[C@@H](NS(C)(=O)=O)[C@H](C(C)C)C2)cn1
3% | CN1CCN([C@H]2CCN(C(=O)c3c(Cl)cnn3C)C[C@H]2CCC(=O)O)CC1
-14% | COc1ccc(NC(=O)Cn2c(-c3cnccn3)nc(C)c(C)c2=O)cc1
2% | Cc1ccccc1Cn1cc(-c2ccncc2)cc1C(=O)NC(C)c1ccccn1 (stereo not drawn)
u | COc1ccc(CN2CCN(c3nc4ccccc4o3)CC2CCO)c(F)c1 (stereo not drawn)
2% | COc1ccc(-n2cc(CN3CCCC(CO)C3)c(-c3cccc(F)c3)n2)cc1 (stereo not drawn)
-7%[70.6 µM] | COCCN1CCOC2(CCN(C(=O)c3ccc(Oc4ccccc4)cc3)CC2)C1=O
0% | CCOc1ccccc1CN1CCC2(CCN([S+](=O)([O-])c3cccs3)CC2)Oc2ccccc21

NPR1 antag | SMILES
0% | CC(C)c1nccn1CCCNC(=O)c1ccc(N2CCC(CO)CC2)nc1
1%[70.6 µM] | CCN(CC)C(=O)C[C@@H]1CCNC[C@@H]1Cc1cc(-c2ccc(OC)cc2)on1
2% | CCN1c2cc(C(=O)Nc3cccc(F)c3)ccc2C(=O)N2CCCC21 (stereo not drawn)
-8%[70.6 µM] | O=C(Nc1cccc(F)c1)N1Cc2[nH]cnc2C[C@H]1c1nc(-c2ccncc2)no1
-3% | COc1ccc(-c2cc3nc4c(c(=O)n3[nH]2)CN(C(=O)CCCc2c[nH]c3ccccc23)CC4)cc1
-3% | CCCOc1nccnc1NC1CCN(C(=O)NCc2ccco2)CC1
2% | CN(Cc1ccoc1)C(=O)Cn1ccc2ncccc2c1=O
2% | COc1ccc2c(ccn2CCNC(=O)Cn2nc3c(cc2=O)CCCC3)c1
2% | CC(C)c1nc(CCN(C)C(=O)C(c2cccnc2)N2CCOCC2)no1 (stereo not drawn)
8% | CCn1ncc(N2CCC(NC(=O)Cc3ccccc3OC)CC2)cc1=O

NPR1 antag | SMILES
0% | Cc1ccc(NC(=O)CC2CCOCC2)cc1F
7% | O=C(Cn1cccn1)N1CCOC(Cc2cccc(C(F)(F)F)c2)C1 (stereo not drawn)
1% | CCc1cccc(NC(=O)CN2C(=O)NC3(CCC(C)CC3)C2=O)c1 (stereo not drawn)
-2% | Cc1ccc(-c2cc3c(=O)n(CCNC(=O)c4ccc5c(c4)OCO5)ccn3n2)c(C)c1
-7% | C[C@H](C(=O)N1CCCC1)C1CC[C@@]2(C)Cc3sc(CS(=O)(=O)c4ccc(Cl)cc4)nc3[C@@H](C)[C@@H]2[C@H]1O (stereo partly drawn)
20µM* | O=C(c1ccccc1)N1CCNc2cnc(Nc3cccc(C(F)(F)F)c3)nc2C1
-1% | COCc1noc(CNC(=O)C(c2ccc(F)cc2)N(C)C)n1 (stereo not drawn)
-18% | Cc1noc(C)c1CC(=O)NC1CCCc2c1[nH]c1ccccc21 (stereo not drawn)
2% | O=C(O)COc1ccc(-c2nccc3c2C(=O)N(Cc2cccc(C(F)(F)F)c2)CC(COc2cccc(F)c2)O3)cc1 (stereo not drawn)
0% | NC(=O)[C@@H]1CN(C(=O)CCc2ccccc2)C[C@H]1COc1ccccc1

# Arranged by length of the SMILES (high to low): some entries from above.
NPR1 antag | SMILES
2% | O=C(O)COc1ccc(-c2nccc3c2C(=O)N(Cc2cccc(C(F)(F)F)c2)CC(COc2cccc(F)c2)O3)cc1 (stereo not drawn)
-18% | Cc1noc(C)c1CC(=O)NC1CCCc2c1[nH]c1ccccc21 (stereo not drawn)
0% | Cc1ccc(NC(=O)CC2CCOCC2)cc1F

# Next section
NPR1 antag | SMILES
1% | CN(C)C[C@@H]1CN(Cc2cccnc2)C[C@H]1NC(=O)C1CC=CCC1 (stereo partly drawn)
1% | Cc1cc(C(=O)N2CCC(C(=O)N3CCCCCCNC(=O)CC3)CC2)nn1C
2% | CC1(c2ccccc2)N(Cc2ccccc2)C(=O)OC12CCN(C(=O)C1CCOCC1)CC2 (stereo not drawn)
-2% | Cc1noc(-c2ccncc2)c1C(=O)NCCCCc1ccccc1
0% | COc1ccc(OC)c(CNC(=O)c2ccc(N3CC4CC(C3)[C@H]3CCCC(=O)N3C4)nc2)c1 (stereo partly drawn)
0% | NC(=O)CN1CCC(C(=O)NCc2cn3cccnc3n2)CC1
7% | O=C1NCCCCCCN(Cc2ccncc2)[C@@H]2CN(S(=O)(=O)Cc3ccccc3)CC[C@H]12
-1% | CS(=O)(=O)N[C@@H]1[C@@H](NC(=O)c2ccc(Cn3ccnc3)o2)[C@H]2CCO[C@H]21
-1% | Cc1ccc(-n2nc3n(c2=O)CCN(C(=O)Cc2ccccn2)C3)cc1
4% | CCCN1CCC(N2C[C@H]3OC(=O)N(CCc4cccc(Cl)c4)[C@H]3C2)CC1

NPR1 antag | SMILES
1%[70.6 µM] | COCCN1Cc2ccc(NCc3ccccc3)nc2C(C)(C(=O)NC2CCOCC2)C1 (stereo not drawn)
5% | CC(=O)N(C1CC1)C1CCOC2(CCN(C(=O)C3(c4ccccc4)CC3)CC2)C1 (stereo not drawn)
u | COc1ccc(-c2nccn3cc(C(=O)NCc4nc5ccccc5n4C)nc23)cc1
-17% | O=C(Nc1ccc(Cl)cc1Cl)N1CCc2[nH]c3ccc(F)cc3c2C1
2%[70.6 µM] | Cn1cc(-c2cn(C)c(=O)n3cc(COc4ccccc4)nc23)cn1
0% | CNC(=O)[C@@H]1CN(S(=O)(=O)c2ccc3c(c2)CCC3)C[C@H]1c1nc(C)no1
u | COc1cccc(-c2noc(Nc3ccc4c(c3)OCO4)n2)c1
-2% | Cc1onc(C(=O)N2C[C@@H](Oc3ccccc3)C[C@H]2C(=O)NC2CC2)c1Cn1cccn1
8% | COc1ccccc1CN1CC(c2noc(-c3sccc3C)n2)CC1=O (stereo not drawn)
3% | CCCn1ncc(C(=O)N2CCOC(CCCC(C)C)C2)c1C (stereo not drawn)

NPR1 antag | SMILES
2% | CCNC(=O)N(C1CC1)C1CCOC2(CCN(C(=O)NCc3ccccc3)CC2)C1 (stereo not drawn)
6%&4%[70.6 µM] | Cc1ccccc1C(=O)N1CCC(N2CCCNC2=O)CC1
-11% | O=C(c1ccc(Cl)cc1)N1CCN(C(=O)c2nnn3c2COC(c2ccccc2)C3)CC1 (stereo not drawn)
-13% | O=C(c1cc2ccccc2[nH]1)N1CCCC(n2cc(-c3nc(-c4ccccc4)no3)nn2)C1 (stereo not drawn)
6% | O=C(c1ccc(C(F)(F)F)cc1)N1CCCC(c2nn(-c3ccccc3)c(=O)[nH]2)C1 (stereo not drawn)
1%[70.6 µM] | O=C(OCc1ccccc1)N1CCOCC12CCN(Cc1ncccn1)CC2
4% | COc1ccc(C(=O)N2CCCCCCNC(=O)CC2)cn1
4% | CCOc1ccccc1NC(=O)N1CCCC(Cc2ncc(C)n2C(C)C)C1 (stereo not drawn)
1% | COc1cccc(CC(=O)N2CCCC3(C2)NC(=O)N(Cc2ccc(Cl)cc2)C3=O)c1 (stereo not drawn)
-2% | Cc1cc(C(=O)NCC2Cn3cccc3CN2C)nn1C (stereo not drawn)

NPR1 antag | SMILES
-3% | O=C(NCc1cccnc1Oc1ccc(F)c(F)c1)C1(Cn2cccn2)CC1
-1% | CCCOC(=O)N1CCC2(CC1)CC(c1ccccc1)C(=O)N(C)C2 (stereo not drawn)
u | Cc1cccc(NC(=O)N2CC(Oc3ccc(-c4nc(C)no4)cc3)C2)c1
-15%[70.6 µM] | CN(C)c1ccc(CN2CCNc3cnc(-c4ccccc4)cc3C2)cc1
-4% | O=C(N[C@H](C1CCNCC1)C1CC(O)C1)c1cccc(=O)[nH]1 (stereo partly drawn)
u | O=C(NCC1CCN(c2cc(-c3ccccc3)[nH]n2)CC1)c1n[nH]c2c1CCCC2
5% | CSc1ccc(-c2noc(-c3ncn4c3COC(c3ccccc3Cl)C4)n2)cc1 (stereo not drawn)
0% | CCCc1nc(C(=O)N2CCN(c3ccccc3Cl)CC2)cs1
-2% | CCN1CCCC1CNC(=O)Cn1nc2c(cc1=O)CCCC2 (stereo not drawn)
-2%[70.6 µM] | CC(=O)N1CCC(NC[C@H]2O[C@@H]3C[C@@H](CC(=O)N4CCC(F)(F)C4)O[C@@H]3[C@@H]2O)CC1

NPR1 antag | SMILES
0%[70.6 µM] | C[S+](=O)([O-])c1cccc(-c2ccc3ncn(-c4ccc(F)cc4F)c(=O)c3n2)c1
4% | O=C(CSc1ccccc1)N1CCc2nc3cc(-c4ccccc4)[nH]n3c(=O)c2C1
0% | COc1cc(-c2ccnc3nc(C4CC4)nn23)cc(OC)c1OC
-1% | COc1cccc(CNC(=O)[C@@H]2C[C@@H](O)CN2C2CCN(C(=O)CCn3nc(C)cc3C)CC2)c1
8% | O=C(O)C[C@@H]1CCN(C(=O)Cc2ccccc2)C[C@@H]1CCN1CCN(c2ccccc2)CC1
-1% | CCc1nc(-c2c3n(c(=O)n(CC(=O)Nc4ccc(C)cc4)c2=O)CCCCC3)no1
u | COc1ccc(S(=O)(=O)N2CCCC(Cc3noc(-c4cccnc4)n3)C2)cc1 (stereo not drawn)
6% | COc1ccc(F)c(CN2CCCC(O)(CN3CCC(C(N)=O)CC3)C2=O)c1 (stereo not drawn)
1% | Cc1noc(-c2ccc(S(=O)(=O)N3C[C@H](C4CC4)[C@@H](N)C3)o2)c1C
0% | CC(C)c1nc2c(c(-c3ccc(O)cc3)n1)CN(Cc1ccc(OC(F)(F)F)cc1)CC2

# Reprinted at random: 3 compounds from above, in no set order.
NPR1 antag | SMILES
1% | Cc1noc(-c2ccc(S(=O)(=O)N3C[C@H](C4CC4)[C@@H](N)C3)o2)c1C
u | COc1ccc(S(=O)(=O)N2CCCC(Cc3noc(-c4cccnc4)n3)C2)cc1 (stereo not drawn)
8% | O=C(O)C[C@@H]1CCN(C(=O)Cc2ccccc2)C[C@@H]1CCN1CCN(c2ccccc2)CC1

# Additional results.
NPR1 antag | SMILES
-2% | CCn1nccc1C(=O)N1CCCC(n2c(C)cnc2COC)C1 (stereo not drawn)
20µM* | Cc1ccc(CNC(=O)N2CCC(Oc3ccc(-c4noc(C)n4)cc3)C2)cc1 (stereo not drawn)
-6%[70.6 µM] | CC1=C[C@@H](CO)[C@H](C(C)C)C[C@H]1CC(=O)NCc1ccc(F)cc1
5% | COc1cccc(CC(=O)N2CCC3(CC2)CC(OCC2CC2)CCO3)c1 (stereo not drawn)
u | CC(=O)Nc1ccc(NC(=O)c2cc3n(n2)CC(c2ccc(Br)cc2)OC3)cc1 (stereo not drawn)
-2% | COc1ccc(Cc2nnc(NC(=O)C[C@H]3NC(=O)c4ccccc4NC3=O)s2)cc1
2% | CNC(=O)c1[nH]nc2c1C(c1ccc(-n3cncn3)cc1)CC(=O)N2 (stereo not drawn)
13% | COCCn1c(CO)nnc1C1CC(NC(=O)c2sc(C)nc2C)C1 (stereo not drawn)
0% | CCCN1CC2(CCN(C)CC2)CC1C(=O)N(C)Cc1nnc(C)o1 (stereo not drawn)
12%[70.6 µM] | Cn1cccc1CN1CCCC(c2nn(-c3ccccc3)c(=O)[nH]2)C1 (stereo not drawn)

NPR1 antag | SMILES
-10% | C[S+](=O)([O-])Nc1cccc(-c2cc3c(ccn3Cc3cccnc3)c(C3=CCOCC3)n2)c1
1%[70.6 µM] | COc1ccc(NC(=O)NC[C@H]2O[C@@H]3C[C@@H](CC(=O)NC(C)C)O[C@@H]3[C@@H]2O)cc1
-1% | O=C(Cn1c(=O)oc2ccccc21)N1CCC2(CC1)NCCc1c2[nH]c2ccccc12
-15% | COc1ccccc1N1CCN(C(=O)c2cc3cn(C4CCCC4)cc3s2)CC1
-20% | Cc1ccc(C(=O)N2CCN(c3cc(-c4cccs4)[nH]n3)CC2)s1
2% | Cc1nccn1CCCNC(=O)c1ccc2nc(C3CC3)oc2c1
-17%[70.6 µM] | O=c1cc(-c2ccccn2)oc2c(Nc3ccccc3)nccc12
2% | O=C(Cc1cccc(Cl)c1)N1CCC(n2cnnc2C2CC2)CC1
1%[70.6 µM] | COC(=O)[C@@H]1Cc2ncn(Cc3ccc(OC)cc3)c2CN1S(C)(=O)=O
2% | COc1ccc(NC(=O)N2C[C@@H]3C[C@H](C2)c2ccc(NC(=O)c4ccc(C#N)cc4)c(=O)n2C3)cc1

NPR1 antag | SMILES
-11% | CCc1ncc(-c2c(-c3ccccc3)ncn2CCNc2cccnc2)cn1
-7%[70.6 µM] | Cc1cc(OC2CN(Cc3ccsc3)C2)ccc1F
0% | Cc1cnccc1N1CCCN(C(=O)Cn2ccnc2-c2ccccc2)CC1
3%[70.6 µM] | CN1C(=O)CO[C@H](c2ccc(NS(=O)(=O)Cc3ccccc3)cc2)[C@H]1CO
-2% | Cc1ccc(C2Cn3nnc(C(=O)N4CCC(C(=O)NC5CCCCCCC5)CC4)c3CO2)cc1 (stereo not drawn)
-21% | O=C(NC1CCCN(c2cc(-c3ccc(Cl)cc3)[nH]n2)C1)c1ccc2c(c1)OCO2 (stereo not drawn)
-14%[70.6 µM] | c1cc(N2CCOCC2)ccc1-c1cc(-c2cn[nH]c2)c2cncn2c1
